ClpP mod: qHTS Assay for Activators of ClpP. purified B. subtilis ClpP, FRET peptide cleavage, 20 min. actives 1.9% (n = 340,000). Potency, µM (highest dose often 57.5 µM), for the others: at the top dose activity change, negative = active. AID 651965, 2013. ATP-dependent Clp protease proteolytic subunit (Bacillus subtilis (strain 168)), P80244; active = well fitted falling curve with a large enough effect; inconclusive = small, poorly fitted or top-dose-only effect; inactive = no such curve, though single readings can be large or run the other way; note: the source files actives as falling curves though it sought activators and does not explain the sign; nearly all actives have a fitted effect of over 65% in size; many hits overshoot -100%
Target sequence (P80244 whole entry, looked up): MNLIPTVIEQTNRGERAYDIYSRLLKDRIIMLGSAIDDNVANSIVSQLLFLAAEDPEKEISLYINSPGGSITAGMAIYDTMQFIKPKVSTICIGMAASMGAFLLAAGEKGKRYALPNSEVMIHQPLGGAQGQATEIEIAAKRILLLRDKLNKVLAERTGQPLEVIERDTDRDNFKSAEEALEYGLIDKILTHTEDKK
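ClpP 10 microg/mL final, pH 8 Tris/KCl buffer with BSA, glycerol, Tween-20; compound pinned in; FRET-FV substrate; RT 20 min; Ex320/Em430; ΔFRET vs ADEP 5.8 microM, DMSO, no enzyme.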
PINK1 modulator: modulators of PINK1 expression; PINK1 immunofluorescence, high-content cytometry, 24 h; Potency, µM (titrated, usually from 76.6 µM), without a hit: at the top dose activation (PINK1 increase), hits mostly activators; actives 0.2% (n = 410,000); AID 624263; active = well fitted activation curve with a large enough effect; inconclusive = small, poorly fitted or top-dose-only effect; inactive = flat fitted curve, though single readings scatter; cell line not stated here;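 note: % of control where 0% means no effect; nearly all actives have a fitted effect of over 65% in size; a mitochondrial uncoupler was the plate control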
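Fluorescence from anti-PINK1 antibody, together with nuclear and cell stains, was scanned on a laser-scanning cytometer. Before staining, stable-line cells were incubated 24 hours with compounds at 5 concentrations; primary antibody 12 h at 10 degrees C.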
An asterisk follows results filed as active; ? = inconclusive; & = joins results of further samples. Potency is the fitted concentration of half-maximal effect. These rows are one share of the data, so the mix of outcomes need not match the whole.

SMILES	ClpP mod	PINK1 modulator
CCc1cccc(CC)c1NC(=O)c1ccc2c(c1)CCN2S(=O)(=O)c1ccccc1	-2.1%	0.4%
COc1ccc(-c2nc(CSCC(=O)NCCc3ccccc3)c(C)o2)cc1	31.6µM*	0.1%
O=S(=O)(c1ccc2c(c1)OCCO2)N1CCN(c2nc(-c3cccs3)nc3ccccc23)CC1	4.5%&4.0%	0.6%&2.4%
O=C(c1cn(CCOc2ccccc2F)c2ccccc12)C1CCCCC1	-0.9%	-1.5%
O=C(NC1CC(=O)N(c2ccc(F)cc2)C1)c1ccc(S(=O)(=O)N2CCCC2)cc1 (stereo not given)	-2.4%	0.6%
Cc1cccc(NC2=CC(c3cccc(Br)c3)N(c3cccc(C)c3)C2=O)c1 (stereo not given)	0.4%	0.2%
Cc1ccc(OCCn2c(COc3ccc(Cl)cc3)nc3ccccc32)cc1	0.4%	1.7%
Cc1ccc(S(=O)(=O)c2nnn3c2nc(NCCc2ccccc2)c2sccc23)cc1	10µM*	5.2%
Cc1nc2ccc(S(=O)(=O)N(CC(=O)Nc3ccc(Cl)cc3)Cc3ccccc3)cc2s1	-3.5%	1.7%
COc1ccc[n+](CC(=O)c2ccc(F)cc2)c1	-1.4%	0.6%
Cc1nnc(NC(=O)CSc2nc3c([nH]c4ccccc43)c(=O)n2-c2ccc(Cl)cc2)s1	-14.9%	-3.0%
CCCCN(C)c1nnc(NC(=O)Nc2ccc(Br)c(C)c2)s1	-1.0%	1.0%
Cc1ccc(-c2nnc(SCCOc3ccccc3)o2)cc1	1.8%	4.0%
CCN(Cc1ccccc1)C(=O)c1cc2c(s1)-c1c(C)cccc1OC2	3.6%	3.7%
Cc1nnc2c(Nc3cccc(O)c3)nc3ccccc3n12	-6.0%	4.6%
O=C(Nc1ccc2nc(SCC(=O)N3CCCC3)sc2c1)c1cccc(Cl)c1	?	0.5%
Cc1cc(C(F)(F)F)c2c(N)c(C(=O)Nc3c(Cl)cccc3Cl)sc2n1	-3.0%	4.0%
CC(=O)c1c(C)n(-c2cccc(C)c2)c2ccc(OC(=O)COc3ccccc3)cc12	0.9%	-5.1%
Cc1ccccc1C(=O)Nc1ccc2nc(SCC(=O)N(C)c3ccccc3)sc2c1	-18.1%	1.7%
CCCCC[C@H](C)N1C[C@H](COCc2ccccc2)Oc2cc(N3CC[C@@H](N(C)C)C3)ccc2S1(=O)=O	-28.8%	-1.0%
COc1ccc(NC(=O)CC(C)S(=O)(=O)c2ccc3c(c2)NC(=O)CO3)cc1OC (stereo not given)	2.5%	0.7%
CCOC(=O)c1ccc(NC(=O)CC2C(=O)N(c3ccc(F)cc3)C(=O)N2Cc2ccc(C)cc2)cc1 (stereo not given)	-4.7%	3.2%
COC(=O)c1ccccc1NC(=O)CCC(=O)N1CCOc2ccccc21	-14.2%	0.1%
Cc1ccc(C(C)C)c(OCC(=O)Nc2cccc(-c3nc4ncccc4o3)c2)c1	22.4µM*	-1.5%
Cc1ccc(S(=O)(=O)n2nc(-c3ccco3)nc2NCc2ccccc2Cl)cc1	-3.4%	2.9%
Next structures
SMILES	ClpP mod	PINK1 modulator
c1ccc(CN(Cc2ccccc2)C(c2ccnc3ccccc23)c2nnnn2-c2ccc3c(c2)OCCO3)cc1 (stereo not given)	-1.4%	0.7%
O=S(=O)(c1cnc2ccccc2c1)N1CCN(c2nc(-c3cccs3)nc3ccccc23)CC1	4.1%	1.7%
COc1cccc(CNC(=O)C2CCN(S(=O)(=O)c3ccc4c(ccn4C)c3)CC2)c1	?	1.0%
CCOc1ccc(OCC)c(NS(=O)(=O)c2c(C(=O)N3CCC(C)CC3)c(C)n(C)c2C)c1	1.5%	0.3%
COc1ccc2nc(NC(=O)c3cc(=O)c4cc(C)cc(C)c4o3)sc2c1	-1.0%	2.5%
CCC(C)n1c(SCC(=O)Nc2ccccc2C(=O)OC)nc2ccsc2c1=O (stereo not given)	31.5%	-0.5%
Cc1cc(C)n(-c2nc3ccccc3nc2Nc2cccc(C(=O)NCCc3ccccc3)c2)n1	-4.2%	0.2%
CC(Sc1nnc2ccc3ccccc3n12)C(=O)Nc1ccc(Cl)cc1 (stereo not given)	0.3%	-0.6%
O=C(NNc1ncnc2c1cnn2-c1ccccc1)c1ccccc1	0.0%	-1.8%
CCCCOC(=O)c1ccc(NC(=O)c2cnc3ccc(C)cn3c2=O)cc1	-3.9%	0.3%
COc1cc(-c2noc(-c3cc(C)[nH]n3)n2)cc(OC)c1OC	0.4%	-0.2%
COc1ccc(S(=O)(=O)N2CCN(c3nc(-c4cccs4)nc4ccccc34)CC2)cc1OC	-3.4%	-0.8%
COc1ccc(NC(=O)c2ccc3c(c2)N(Cc2cccc(Cl)c2)C(=O)c2ccccc2S3=O)cc1Cl (stereo not given)	0.0%	?
Cc1c(Cl)cccc1NC(=O)CSc1ccc(-c2ccccn2)nn1	-1.4%	1.2%
CCCCN(C)CCCNC(=O)C1CCN(S(=O)(=O)CCC)CC1	0.3%	-5.1%
CCOc1ccc(CCNC(=O)c2cc3c(s2)-c2ccccc2OC3)cc1OCC	4.0%	0.8%
CCOc1ccc(C2C(C(=O)Nc3ccccc3)=C(C)Nc3nc(-c4ccccc4)nn32)cc1OC (stereo not given)	-18.0%	6.4%
COc1ccc(N2CCN(S(=O)(=O)c3ccc(OC)c(-c4noc(C)n4)c3)CC2)cc1	-1.0%	0.5%
O=C(NCc1ccccc1Cl)C1CCCN(c2nc3ccccc3n3cccc23)C1 (stereo not given)	-29.6%	5.8%
COc1ccc(S(=O)(=O)N(CCc2ccccc2)CC(=O)NCc2ccccc2)cc1OC	-2.1%	2.8%
Cn1c(=O)c2c(c3ccccc31)OC(=O)CC2c1cccc(F)c1 (stereo not given)	3.8%	0.7%
CCS(=O)(=O)c1c(S(=O)(=O)CC)c2cc(C(C)(C)C)ccn2c1C(=O)c1ccc(F)cc1	2.1%	0.2%
COc1ccc2c(c1)c(=O)c(C(=O)c1ccccc1)cn2CC(=O)Nc1ccc2c(c1)OCO2	-1.6%	0.1%
CCN(Cc1ccccc1)C(=O)C1CCC(CNS(=O)(=O)c2ccc3c(c2)CCCC(=O)N3)CC1 (stereo not given)	1.0%	0.4%
O=C(NCc1ccccc1)c1ccc2c(c1)N(Cc1cccc(Cl)c1)C(=O)c1ccccc1S2(=O)=O	1.9%	4.2%

Sorted by the number under PINK1 modulator (falling): some entries from above
compound	PINK1 modulator
Cn1c(=O)c2c(c3ccccc31)OC(=O)CC2c1cccc(F)c1 (stereo not given)	0.7%
CCS(=O)(=O)c1c(S(=O)(=O)CC)c2cc(C(C)(C)C)ccn2c1C(=O)c1ccc(F)cc1	0.2%
CCCCC[C@H](C)N1C[C@H](COCc2ccccc2)Oc2cc(N3CC[C@@H](N(C)C)C3)ccc2S1(=O)=O	-1.0%

Next section
SMILES	ClpP mod	PINK1 modulator
Cc1ccc(Cl)cc1-n1nnc(-c2nc(-c3ccc4c(c3)OCO4)no2)c1C	-1.2%	0.0%
O=c1c2cn[nH]c2nc(SCc2cccc(Br)c2)n1-c1ccc(Cl)cc1	-1.5%	0.4%
Cc1c(C(=O)Nc2ccc(Br)cc2F)sc2ncnc(N(C)C3CCCCC3)c12	-22.9%	6.7%
CC(=O)N1N=C(c2ccc(C)cc2)CC1c1cn(-c2ccccc2)nc1-c1cccs1 (stereo not given)	2.2%	10.8%
CC(C)(C)NC(=O)c1oc2ccccc2c1NC(=O)c1ccccc1F	?	3.7%
COc1cccc(CNC(=O)Nc2ccc3c(c2)N(C)C(=O)c2ccccc2S3)c1	-3.3%	2.3%
O=C(NCCCO)C(=O)Nc1c2c(nn1-c1ccccc1)CSC2	1.1%	-0.5%
Cc1ccc(CNC(=O)c2cc3sccc3n2Cc2ccc(Cl)cc2)cc1	?	6.2%
CC1CCN(c2ccc(NC(=O)c3cccc(Cl)c3)cc2C(=O)O)CC1	2.2%	-0.8%
O=S(=O)(c1ccc(Cl)cc1)N1CCOCC1	0.7%	-0.6%
CCOc1ccccc1NC(=O)CN1C(=O)CC(c2ccc(OC)c(OC)c2)Sc2ccccc21 (stereo not given)	-4.4%	1.1%
O=C(C[n+]1ccccc1Cl)c1ccc(I)cc1	-2.5%	0.7%
COc1ccc(NC(=O)Cn2c(=O)cc(C)c3c(C)nn(C)c32)cc1	0.9%	1.1%
CCc1ccccc1NC(=O)c1ccc2nc(CCc3ccccc3)oc2c1	75.9%	3.2%
Cc1cc(C)cc(NC(=O)CN(C)S(=O)(=O)c2ccc3[nH]c4c(c3c2)CCCC4)c1	-9.3%	?
Cc1ccc(CNC(=O)CSCc2nc(-c3ccc(Cl)cc3)oc2C)cc1	?	3.7%
CCOc1ccccc1NC(=O)c1cc2ccc3cccnc3c2[nH]1	154.0%	-9.2%
CCCCNC(=O)CN1CCN(c2ccc(NC(=O)c3ccc(OC)cc3)cc2C(=O)O)CC1	-0.9%	-1.4%
COc1ccc(/C=C(\C#N)c2nc(-c3cc4c(ccc5ccccc54)oc3=O)cs2)cc1O	4.9%	0.1%
O=C(CSc1oc(-c2ccc(F)cc2)nc1S(=O)(=O)c1ccccc1)NC1CCCCC1	0.0%	0.8%
COc1ccc(C2C(C(=O)Nc3ccc(C)cc3C)=C(C)Nc3nc(SC)nn32)cc1OC (stereo not given)	0.0%	2.3%
CCOc1ccc(Sc2cc(C(=O)NCCc3ccccc3)c3ccccc3n2)cc1	21.2%	1.7%
COc1cccc(NC(=O)NCc2ccc3c(c2)CCN3C(=O)c2ccccc2)c1	-4.0%	0.5%
Cc1ccc(Cl)cc1N1CCN(c2ncnc3c2nc2n3CCCC2)CC1	2.0%	1.3%
CCOC(=O)CN(Cc1ccccc1)C(C(=O)NC1CCCCC1)c1ccc(OC)cc1 (stereo not given)	-1.0%	1.5%

Given with each value named: entries from further up.
O=C(C[n+]1ccccc1Cl)c1ccc(I)cc1
  ClpP mod: -2.5%; PINK1 modulator: 0.7%

CCOC(=O)CN(Cc1ccccc1)C(C(=O)NC1CCCCC1)c1ccc(OC)cc1 (stereo not given)
  ClpP mod: -1.0%; PINK1 modulator: 1.5%

CCOc1ccccc1NC(=O)CN1C(=O)CC(c2ccc(OC)c(OC)c2)Sc2ccccc21 (stereo not given)
  ClpP mod: -4.4%; PINK1 modulator: 1.1%

Further compounds follow:
SMILES	ClpP mod	PINK1 modulator
CCCSC1=NC2(CCN(C(=O)NC3CCCCC3)CC2)N=C1c1ccccc1	0.1%	1.0%
Cc1cc(C)cc(NC(=O)CSc2nc3ncccc3[nH]2)c1	0.6%	2.4%
COc1ccc(NC(=O)Cn2cc(C(=O)c3ccccc3)c(=O)c3cc(OC)ccc32)c(OC)c1	-0.8%	2.4%
Cc1ccc2c(c1)N(C(=O)N1CCC(C(=O)NCc3ccco3)CC1)CC(C)O2 (stereo not given)	1.1%	0.0%
CCOc1ccc(S(=O)(=O)NCCc2sc3nc(-c4ccc(C)cc4)nn3c2C)cc1	-0.4%	0.2%
COc1cccc(CNS(=O)(=O)c2c(C(=O)N3CCC(C)CC3)c(C)n(C)c2C)c1	-2.3%	-0.7%
COc1cccc(CNC(=O)CCc2c(C)c3ccc(O)c(C)c3oc2=O)c1	4.1%	5.7%
Cc1cc(C)cc(C(=O)Nc2cc(C(F)(F)F)ccc2N2CCN(c3ccccc3)CC2)c1	3.9%	-1.1%
Cc1cccc(N(CC(=O)Nc2ccc(Br)cc2)S(C)(=O)=O)c1C	0.0%	1.1%
CCOc1ccccc1NC(=O)c1nn(C)c2c1CSc1ccccc1-2	-3.5%	0.5%
Cc1ccc(-c2noc(-c3nnn(-c4ccc(Br)cc4F)c3C)n2)cc1	0.7%	1.0%
O=C(Nc1ccc(Cl)c(Cl)c1)c1cc(S(=O)(=O)N2CCN(c3cccc(Cl)c3)CC2)ccc1F	-25.8%	0.8%
O=C(Cn1cc2c(n1)CCCC2)Nc1cc(C(F)(F)F)ccc1Cl	-1.2%	0.7%
CCCCOc1ccc(Cn2c(=O)oc3ccc(C)cc32)cc1	-2.5%	0.9%
Cc1ccc(Nc2c(-c3cccnc3)nc3ccc(C)cn23)cc1	-16.9%	-0.1%
CCc1nnc(NC(=O)c2nc(SC)ncc2Cl)s1	0.3%	0.5%
COc1ccc(S(=O)(=O)Nc2cccc(-c3ccc(N4CCCC4)nn3)c2)cc1OC	-0.5%	3.4%
COc1ccc(N2CCN(C(=O)CCc3c(C)nc4cc(-c5cccc(F)c5)nn4c3C)CC2)cc1	-28.9%	1.9%
O=C(NCC(c1cccnc1)N1CCc2ccccc21)c1cccc(C(F)(F)F)c1 (stereo not given)	1.4%	0.2%
O=C(NCc1ccccc1)C1c2ccccc2OCC(=O)N1C1CC1 (stereo not given)	3.7%	1.3%
Cc1ccc(NC(=O)CCCn2c(=O)c3cccn3c3ccccc32)c(C)c1	-12.2%	0.6%
Cc1cccc2c1-c1sc(C(=O)Nc3ccccc3C(N)=O)cc1CO2	5.1%	0.1%

Single records, from the list above.
`CCCSC1=NC2(CCN(C(=O)NC3CCCCC3)CC2)N=C1c1ccccc1` reads ClpP mod = 0.1%; PINK1 modulator = 1.0%
`CCCCNC(=O)CN1CCN(c2ccc(NC(=O)c3ccc(OC)cc3)cc2C(=O)O)CC1` reads ClpP mod = -0.9%; PINK1 modulator = -1.4%
`CC(=O)c1c(C)n(-c2cccc(C)c2)c2ccc(OC(=O)COc3ccccc3)cc12` reads ClpP mod = 0.9%; PINK1 modulator = -5.1%
